VACV mCherry inh: inhibitors of vaccinia virus infection (mCherry reporter signal); actives 0.63% (n = 310,000); Vaccinia virus mCherry reporter infection, fluorescence; about a quarter of the inactives have no number; Potency, µM (highest dose often 36.5 µM), for the others: at the top dose activity change, negative = inhibition, most hits filed as inhibitors; active = well fitted inhibition curve with a large enough effect; inconclusive = small, poorly fitted or top-dose-only effect; inactive = no such curve, though single readings can be large or run the other way; tested in A549 cells; note: nearly all actives have a fitted effect of over 35% in size; inactives centre near -10
VACV Venus inh: vaccinia inhibition (Venus reporter); Potency, µM (doses to about 36.5 µM), inactives show top-dose activity change, negative = inhibition, most hits filed as inhibitors; AID 720580; Vaccinia virus Venus reporter expression, fluorescence; actives 0.46% (n = 330,000); active means well fitted inhibition curve with a large enough effect; inconclusive means small, poorly fitted or top-dose-only effect; inactive means no such curve, though single readings can be large or run the other way; tested in A549 cells; note: nearly all actives have a fitted effect of over 30% in size; inactives centre near -10
Active calls of the source: *; i = inactive; u = inconclusive; x = not tested or not shown; & = joins results of further samples; [ ] = remark or other dose. % is set by controls: 0 for no effect and ±100 for the full control effect; potency is the fitted concentration of half-maximal effect. Outcome played no part in choosing rows, and some 0.86% of all compounds hit somewhere here.

| SMILES | VACV mCherry inh | VACV Venus inh |
| --- | --- | --- |
| Cc1cc(O)c(C(c2ccc(F)cc2)N2CCCCC2)c(=O)n1Cc1ccco1 (stereo not given) | -8.2% | -6.1% |
| O=C(CSc1nnc(-c2ccccc2)o1)Oc1ccc(Br)cc1 | -13.5% | -12.4% |
| CCCNC(=O)c1ccc2c(=O)n(Cc3ccco3)c(=S)[nH]c2c1 | -13.9% | 5.5% |
| O=C(CCC(=O)OCC(=O)c1ccc(F)cc1)NC1CCCCC1 | -11.2% | -9.9% |
| NC(=O)c1ccc(NC(=O)COC(=O)CCCc2c[nH]c3ccccc23)cc1 | i | -14.6% |
| O=S(=O)(c1ccccc1)c1nc(Nc2cccc(O)c2)sc1Cl | -29.8% | -25.7% |
| COc1ccc(OC)c(NC(=O)c2ccc(NC(C)=O)cc2)c1 | i | -11.0% |
| CC(C)CNC(=S)N1CCN(c2nc(-c3ccc(Cl)cc3)cs2)CC1 | u | -25.9% |
| Cc1cc(C)c2sc(NNC(=O)C3COc4ccccc4O3)nc2c1 (stereo not given) | u | u |
| CCc1ccc(C(=O)CC2(O)C(=O)N(CCc3ccccc3)c3ccc(Cl)cc32)cc1 (stereo not given) | -27.1% | -28.9% |
| CN(C(=O)CSc1nc(N)nn1-c1ccccc1)c1ccccc1 | -23.1% | -8.2% |
| O=C(CCC(=O)N/N=C/c1c[nH]c2ccccc12)NCc1ccccc1 | i | -18.0% |
| O=C(Nc1nc2nc(-c3ccccc3)cc(-c3ccccc3)n2n1)c1ccco1 | -24.3% | -27.8% |
| N#Cc1ccc(NC(=O)CSc2cn[nH]n2)cc1 | -14.0% | 23.5% |
| CCn1c(NCc2ccc(OC)cc2)nc2ccccc21 | -15.6% | -16.3% |
| Cc1ccc(/C=N/NC(=O)c2ccccc2OCc2cccc(Br)c2)o1 | -20.5% | -15.3% |
| Cc1cc(C)c(S(=O)(=O)NCCc2cc3cc(C)c(C)cc3[nH]c2=O)c(C)c1 | -3.2% | -9.3% |
| O=C(CNS(=O)(=O)c1ccccc1)N1CCCC1 | i | -1.6% |
| O=C(NC1=NCCS1)c1cccc(NC(=O)c2ccco2)c1 | -12.2% | -5.5% |
| Cc1ccc(CNC(=O)CCn2ccc3cc(S(=O)(=O)N4CCCC4)ccc32)cc1 | -12.7% | -18.4% |
| Cc1cccc(CN(C)C)c1CC(O)(c1ccccc1)c1ccccc1 | i | -12.5% |
| C/C=C/COc1nc2c(c(=O)n(C)c(=O)n2C)n1C | -9.7% | -8.3% |
| CC1CN(c2cc(=O)n(-c3ccc(Cl)cc3)c(=O)[nH]2)CC(C)O1 (stereo not given) | -14.3% | 4.6% |
| O=c1[nH]c(-c2ccccc2Cl)nc2c1sc(=S)n2-c1ccccc1 | i | -1.7% |
| Cc1ccc(C2(c3ccccc3)NC(=O)N(CC(=O)NC3CCCCC3)C2=O)cc1C (stereo not given) | u | u |
| CCCCCn1c(=O)[nH]c2cc(C(=O)N3CCN(c4cccc(C)c4)C(C)C3)ccc2c1=O (stereo not given) | -25.2% | -15.4% |
| O=S(=O)(NCc1ccc(F)cc1)c1ccc(N2CCCCS2(=O)=O)cc1 | -20.0% | -27.5% |
| O=C(CC(NC(=O)OCc1ccccc1)C(=O)OCc1ccccc1)OCc1ccccc1 (stereo not given) | -10.9% | -7.4% |
| Cc1ccc(C)c(-c2cc(C(=O)N/N=C/c3cccnc3)c3ccccc3n2)c1 | -22.5% | -23.7% |
| CCCCc1ccc(NC(=O)COC(=O)c2ccccc2OCC(=O)Nc2ccc(Br)cc2)cc1 | -13.0% | -16.3% |
| CCC(Sc1nc2c(sc3ccccc32)c(=O)n1CCc1ccccc1)C(=O)N(CC)CC (stereo not given) | -0.9% | 5.1% |
| COc1ccc(C(c2nnnn2-c2ccc(OC)cc2)N2CCN(C/C=C/c3ccccc3)CC2)cc1 (stereo not given) | i | -16.2% |
| c1ccc(NC2=NCCN2CC2CCCC2)cc1 | i | 6.9% |
| CN(C)c1ccc(CNC(=O)CCS(=O)(=O)c2ccc3c(c2)n(C)c(=O)c(=O)n3C)cc1 | -27.0% | -18.1% |
| CCN(CC)c1ccc(NC(=O)CN2CCN(c3ccccc3OC)CC2)cc1 | -7.7% | -3.1% |
| COCCN(CCOC)Cc1c(C)[nH]c2c(C)c(C)ccc2c1=O | -7.6% | 1.6% |
| CCOc1ccc(CCNC(=O)c2cnc3sc(N(CC)CC)nn3c2=O)cc1OCC | i | -12.0% |
| Cc1oc(-c2ccccc2F)nc1CS(=O)(=O)CC(=O)NCCc1ccc(Cl)cc1 | -6.1% | -7.2% |
| CCCCN1C(=S)SC(C)(C)C1/[N+]([O-])=C/c1cccnc1 (stereo not given) | -29.8% | -20.4% |
| Clc1cccc(-c2nnc3n2CCCCC3)c1 | i | -14.2% |
| CC(C)(C(=O)N[C@H](CO)c1ccccc1)C(=O)N[C@H](CO)c1ccccc1 | i | -4.8% |
| CN(C)c1ccc(C(=O)N2CC(=O)N(CCc3ccccc3)C(=O)C2)cc1 | -5.0% | 18.3% |
| CC1(C)CC2CC(C)(CN2/C=N/c2sc3c(c2C#N)CC(C)(C)NC3(C)C)C1 (stereo not given) | -13.7% | u |
| CCC(c1nnnn1Cc1ccco1)N(Cc1ccccc1OC)Cc1cc2cc(C)ccc2[nH]c1=O (stereo not given) | x | -6.2% |
| COc1ccccc1OCCCOc1c(Cl)cc(C)cc1Cl | -9.9% | -2.4% |
| CNC(=O)c1nnc(Cc2ccc(Cl)cc2)o1 | 2.3% | -5.2% |
| COc1ccc(C2=C(C)C(=NCCCN3CCN(c4cc(Cl)ccc4C)CC3)NS2(=O)=O)cc1 | u | u |
| COc1cc(NC(=O)COC(=O)c2cnccn2)c(C)cc1[N+](=O)[O-] | -13.3% | -0.3% |
| CCCn1c(CCC(=O)Nc2ccccc2Cc2ccccc2)nc2cc(S(=O)(=O)N3CCOCC3)ccc21 | x | -15.4% |
| CCC(C)(C)n1nnnc1C(c1ccc(OC)c(OC)c1)N1CCN(c2ccc(OC)cc2)CC1 (stereo not given) | x | 11.4% |

In another format: two of the compounds above
SMILES: Cc1oc(-c2ccccc2F)nc1CS(=O)(=O)CC(=O)NCCc1ccc(Cl)cc1
  VACV mCherry inh: -6.1%
  VACV Venus inh: -7.2%

SMILES: CCCCN1C(=S)SC(C)(C)C1/[N+]([O-])=C/c1cccnc1 (stereo not given)
  VACV mCherry inh: -29.8%
  VACV Venus inh: -20.4%

Remaining list, next part
| SMILES | VACV mCherry inh | VACV Venus inh |
| --- | --- | --- |
| CCCC(=O)Nc1ccc2nc(SCC(=O)Nc3ccc(N4CCOCC4)c(Cl)c3)sc2c1 | x | u |
| O=C(Nc1ccc(Cl)c(S(=O)(=O)N2CCOCC2)c1)c1ccc2c(c1)OCCO2 | -9.7% | -12.5% |
| CCOc1cc(C=O)cc(N=Nc2cccc([N+](=O)[O-])c2)c1O | -7.9% | -4.8% |
| COC1OCC(O)C(OC(=O)c2ccccc2)C1OC(=O)c1ccccc1 (stereo not given) | -11.4% | 2.2% |
| CCSc1nnc(-c2ccc(S(=O)(=O)NCc3cccs3)cc2)o1 | -17.2% | -15.5% |
| O=C(Cn1cc(C(=O)c2ccccc2F)c2ccccc21)NC1CC1 | -11.9% | -4.6% |
| CN(C)/C=C(\C=O)c1cccc(Cl)c1 | i | 8.5% |
| CC(C)CN(CCCNC(=O)CN1C(=O)COc2ccc(S(=O)(=O)N3CCCCCC3)cc21)CC(C)C | -18.4%&-10.1% | -6.2%&7.0% |
| CN1C(=O)c2ccc(Oc3ccccc3)cc2C1=O | i[7.34 µM] | -0.1%[7.34 µM] |
| CCCc1nc2c(Cl)cc(C(F)(F)F)cn2c1Cc1ccc(OC)cc1C | 4.2% | 6.0% |
| CS(=O)(=O)Cc1ccc(C(=O)NC(c2ccccc2)c2ccccc2)cc1 | i | 0.0% |
| CC(C)OC(=O)CC12CN3CC(CC(=O)OC(C)C)(CN(C1)C(=O)c1ccccc1C3=O)C2=O | x | -10.5% |
| Cc1ccc(C(=O)C(OC(=O)c2c(C)cc(=O)oc2C)c2ccccc2)cc1 (stereo not given) | -3.1% | -15.7% |
| CN(Cc1ccccc1)C(=O)c1ccc(NC(=O)Cc2ccc(NC(=O)C3CCCN(C(=O)CCc4ccccc4)C3)cc2)cc1 (stereo not given) | 10µM* | u |
| Cc1ccccc1Cc1c(C)nc2nc(SCC(=O)NC(C)c3ccccc3)nn2c1C (stereo not given) | -19.0% | -9.4% |
| O=C(CCN1CCc2ccccc2C(c2ccccc2)C1)c1ccc2c(c1)OCCO2 (stereo not given) | u | -25.9% |
| O=C(/C=C/c1cccc([N+](=O)[O-])c1)NCCN1C(=O)S/C(=C\c2cccnc2)C1=O | -16.6% | -15.4% |
| CC1(c2nnnn2Cc2ccccc2)CCC(=O)N1CCCN1CCOCC1 (stereo not given) | 43.5%[activator] | 0.1% |
| CCCN(CCC)CCCNC(=O)Cn1ncc2c3ccccc3n(Cc3ccccc3F)c2c1=O | -13.1% | -5.1% |
| c1ccc2c(c1)CCN(c1nc(CN3CCOCC3)nc3sc4c(c13)CCCC4)C2 | -25.8% | -19.9% |
| CCc1c(C)nc(SCC(=O)N2CCCCC2CC)[nH]c1=O (stereo not given) | -13.7% | -1.2% |
| COc1ccc(CNC(=O)c2ccc(CS(=O)(=O)c3ccc(Br)cc3)o2)cc1 | -12.4%&-0.1% | 4.2%&-6.8% |
| CC[n+]1c2ccccc2cc2ccccc21 | 62.8%[activator] | 8.5% |
| CCC(Oc1ccccc1)C(=O)Nc1ccc2oc(-c3ccc(OC)cc3)nc2c1 (stereo not given) | -4.7% | -10.8% |
| Cc1ccc(NC(=O)CCc2nnc3ccc(N4CCOCC4)nn23)cc1C | -12.4% | -12.7% |
| CCOc1ccc(OCC)c(NC(=O)C2CCCN(C(=O)c3ccc(Cl)cc3)C2)c1 (stereo not given) | -17.3% | -11.9% |
| C/C(=C1\SC(N2CCOCC2)=NC1=O)c1ccc(C)cc1 | x | -4.9% |
| CCCCNC(=O)CSc1nnc(C)c2c(C)n(-c3ccccc3)nc12 | -13.3% | -11.0% |
| COc1ccccc1CNC(=O)COC(=O)Cc1ccc(Br)cc1 | -14.9% | -11.1% |
| CCn1nc(C)c2c(-c3ccccc3)cc(=O)n(C(C)C(=O)NCCC(C)C)c21 (stereo not given) | 1.1% | 7.4% |
| CC(C)OC(=O)c1cc(-c2ccc(C=O)o2)ccc1Cl | -11.6% | -7.8% |
| COc1cc(C(CC(=O)NCc2ccccc2Cl)N2Cc3ccccc3C2=O)cc(OC)c1OC (stereo not given) | 1.5% | -6.2% |
| COc1ccc([N+](=O)[O-])cc1NC(=O)COC(=O)c1ccccc1O | i | -4.9% |
| CCOC(=O)c1c(NC(=O)Cc2cccs2)sc(C(=O)N2CCCCC2)c1C | x | u |
| O=C(Nc1ccc(F)cc1)c1nc[nH]c1C(=O)Nc1ccccc1[N+](=O)[O-] | -14.8% | 1.4% |
| NC(=O)c1ncn([C@@H]2O[C@H](CNCc3cccc(OC4CCCC4)c3)[C@@H](O)[C@H]2O)n1 | i | 1.6% |
| O=c1oc(Nc2ccccc2F)nc2ccccc12 | -10.4% | -5.7% |
| CCN(C(=O)CCS(=O)(=O)c1cccc2nonc12)c1ccc(F)cc1 | i | -3.4% |
| Cc1cccc(N(C)c2ncnc3onc(-c4ccc(F)cc4)c23)c1C | -8.3% | -25.8% |
| CC(C)n1c(Sc2nccn2C)nc2c1c(=O)n(C)c(=O)n2C | -5.4% | -19.9% |
| Cc1cc(N2CCCC2)ccc1/C=N/n1cnnc1 | -13.7% | -10.7% |
| COC(=O)c1ccccc1NC(=O)N1C[C@@H]2C[C@@H](C1)c1cccc(=O)n1C2 | -1.2% | 5.0% |
| CC(C(N)=O)N1C(=O)NC2(CCCc3ccccc32)C1=O (stereo not given) | -4.2% | -1.3% |
| O=C(NC1CCCC1)c1cc(-c2ccccc2Cl)on1 | -6.4% | 4.3% |
| CN1CCCCC1(C)C(=O)NCc1ccc(F)cc1 (stereo not given) | 4.2% | -4.9% |
| COc1cccc(CNC(=O)CCC2CCCN(C(=O)c3ccoc3)C2)c1 (stereo not given) | i | -10.5% |
| COC(=O)c1ccccc1NC(=O)CCS(=O)(=O)c1nc(-c2ccc3c(c2)OCO3)cc(C(F)(F)F)n1 | -8.9% | -15.7% |
| Cc1cc(C)n(CC(=O)N/N=C/c2cccs2)n1 | -7.2% | -2.2% |
| O=C(NC1CCCC1)c1ccc(CNc2c(N3CCOCC3)c(=O)c2=O)cc1 | i | -7.8% |
| O=S(=O)(c1ccc(Br)cc1Cl)N1CCN(CCO)CC1 | i | -9.8% |

The listing continues.
| SMILES | VACV mCherry inh | VACV Venus inh |
| --- | --- | --- |
| CCOC(=O)C1(CCOc2ccccc2)CCN(Cc2ccc(OCCO)cc2)CC1 | -20.3% | -20.3% |
| Cc1ccc(C)c(NC(=O)C(CC(=O)O)Cc2ccccc2)c1 (stereo not given) | -1.5% | -23.9% |
| O=C(O)c1cc(CN2CCOCC2)oc1-c1ccccc1 | -6.6% | -9.1% |
| O=C(CSc1nc2[nH]ncc2c(=O)n1-c1ccccc1)NCCc1ccccc1 | -14.8% | -10.8% |
| Cc1cc(-c2ccco2)c(C#N)c2nc3ccccc3n12 | 7.5% | 6.5% |
| Cc1ccc(C(=O)NNC(=O)c2ccccc2O)cc1S(=O)(=O)N1CCCCC1 | -16.3% | u |
| Cc1ccc(-c2nc3ncccc3o2)cc1NC(=O)c1ccc([N+](=O)[O-])o1 | i | -7.7% |
| Nc1ccn([C@H]2CC[C@@H](CO)O2)c(=O)n1 | i | -2.3% |
| COC(=O)c1sc2nc3c(c(-c4cccs4)c2c1N)CCCC3 | -6.7% | -16.2% |
| COC(=O)CCn1nc(-c2ccc(C)cc2)c2ccccc2c1=O | -13.3% | -7.7% |
| Clc1cccc(-n2ncc3c(NC4CCCCCC4)ncnc32)c1 | -17.2% | -8.9% |
